# UCH37 inh: inhibitors of human deubiquitinating enzyme UCH37; Q9Y5K5; purified proteasome/UCH37, Ub-AMC cleavage fluorescence; inhibition, % (no concentration beside the values); 330,000 tested, 0.33% active; AID 588478;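 active means mean of two replicates above 20%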;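 further: 0% = compound-free wells with enzyme and 100% = wells lacking proteasome; stock transfer was 100 nL into about 20 µL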
# Target sequence (Q9Y5K5 whole entry, looked up): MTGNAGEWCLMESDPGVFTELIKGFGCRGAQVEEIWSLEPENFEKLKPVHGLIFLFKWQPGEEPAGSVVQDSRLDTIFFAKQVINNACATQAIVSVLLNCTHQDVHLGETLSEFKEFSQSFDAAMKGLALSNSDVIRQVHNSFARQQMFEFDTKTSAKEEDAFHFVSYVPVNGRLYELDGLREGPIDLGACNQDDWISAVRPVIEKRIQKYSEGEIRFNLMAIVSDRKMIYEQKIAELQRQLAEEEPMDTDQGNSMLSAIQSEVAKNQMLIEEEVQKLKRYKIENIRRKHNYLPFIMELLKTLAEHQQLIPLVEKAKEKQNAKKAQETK
#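 Material: human UCH37 enzyme supplied as purified proteasome complex / Amount: 0.15 nM proteasome as dispensed / Buffer or medium: pH 7.4 Tris-HCl (50 mM) with ovalbumin, ATP-MgCl2, DTT / Times: preincubation 30 min, reaction 25 min, room temperature / Technique: AMC fluorescence from Ub-AMC cleavage, excitation 355 nm, emission 460 nm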
# Ecoli growth: blocks Escherichia coli growth | AID 1053175 | 330,000 tested, 0.21% active | OD600 absorbance (test concentration not listed) | OD600, 23 h; hits give low values;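 active means OD600 absorbance below the run mean of sample wells minus 3.6 SD, in any replicate, cut at about 0.56 in these data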;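 further: stock transfer was 300 nL into about 60 µL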
# An asterisk follows results filed as active. The list is partial. The share of hits here may be higher or lower than overall.
SMILES,UCH37 inh,Ecoli growth
N#CC(=NNc1ccc(S(=O)(=O)N2CCc3ccccc32)cc1)C(N)=S,8.1,0.73
Cc1ccc(C)c(NN=C2CCCNC2=O)c1,3.9,0.67
O=C(O)c1ccc(C=NO)cc1,4.6,0.7
C=C(C)C1CC=C(C)C(=NNC(=O)c2ccccc2[N+](=O)[O-])C1 (centres undefined),0.9,0.64
C/C(C=Nn1c(-c2cccnc2)n[nH]c1=S)=C\c1ccco1,15,0.64
CN(C)/C=C(\C#N)C(=O)NN=Cc1ccc(Cl)cc1,5.7,0.65
CC(CC(=O)NC1CCCCC1)=NNC(=O)c1ccccn1,1.8,0.66
NC(COc1ccc(C(=O)O)cc1)=NO,4.1,0.69
COC(=O)C1=C(C)N=c2sc(=Cc3ccoc3)c(=O)n2C1c1ccccc1 (centres undefined),7.8,0.67
CCOC(=O)C1=C(C)N=c2sc(=CC(=O)OC)c(=O)n2C1c1ccc(OC)cc1 (centres undefined),-2.0,0.8
O=C(NN=Cc1cccc([N+](=O)[O-])c1)c1ccc(CN2CCOCC2)cc1,5.2,0.66
O=C(CNC(=O)c1ccc(S(=O)(=O)N2CCCCC2)cc1)NN=Cc1ccco1,-0.6,0.65
O=[N+]([O-])c1cccc(C=Nn2c(C3CCCCC3)n[nH]c2=S)c1,2.2,0.68
CCCCCCC(=NNS(C)(=O)=O)c1ccccc1,6.1,0.69
Cc1nn(-c2ccccc2)c(Cl)c1C=NNC(=O)c1ccccc1NS(=O)(=O)c1cccs1,-32,0.69
C[C@]12CCC3C(CC[C@H]4CC(O)CC[C@]34C)C1CCC2=NNC(=O)c1ccncc1 (some centres undefined),1.3,0.7
CCc1ccc2c(c1)C(=NOC)C(=O)N2,5.5,0.69
O=C(NN=Cc1ccncc1)c1ccccn1,7.3,0.67
O=C(NN=Cc1cc([N+](=O)[O-])ccc1N1CCNCC1)c1ccc([N+](=O)[O-])cc1,11,0.69
Cc1ccc(NCC(=O)NN=Cc2ccc(C(=O)O)cc2)cc1,2.7,0.72
CN(N=Cc1ccc(O)cc1O)c1ncc(C(F)(F)F)cc1Cl,-4.0,0.65
O=C(NN=C/C=C/c1ccc2c(c1)OCO2)c1ccc([N+](=O)[O-])cc1,4.9,0.68
CN(N=Cc1c[nH]c2ccccc12)c1cnn(-c2ccc(F)c(Cl)c2)c(=O)c1Cl,5.8,0.79
CC(C)c1ccc(C=NN2CCCCC2)cc1,0.5,0.7
CC(NO)C(=NO)c1cccs1 (centres undefined),3.5,0.7
# The list continues:
SMILES,UCH37 inh,Ecoli growth
COC(=O)CCC(=NNc1ccc(Cl)c(Cl)c1)C(=O)OC,-16,0.71
Nc1nonc1C(=O)NN=Cc1cc2c(cc1Br)OCO2,-3.4,0.71
C/C(C=NNC(=O)Cn1cncn1)=C/c1ccc(C(C)C)cc1,23*,0.72
COc1ccc(C=NNc2nc(-c3ccc(Cl)cc3)cc(C(F)(F)F)n2)c(OC)c1,5.0,0.75
CSc1nc(C)cc(SCC(=O)NN=Cc2ccccc2)n1,3.5,0.67
COc1ccc(N(CC(=O)NN=C(C)CCc2ccccc2)S(=O)(=O)c2ccc(C)cc2)cc1,3.6,0.72
Cc1ccc(S(=O)(=O)N(CC(=O)NN=Cc2ccc(F)cc2)c2cccc3cccnc23)cc1,4.9,0.7
O=C(CON=Cc1ccc(OC(F)F)cc1)NCc1cccs1,3.5,0.71
COc1ccc(NCC(=O)NN=C2CCc3ccccc32)cc1,4.0,0.67
CC(=NNc1ccc(C(=O)O)cc1)c1ccc(Cl)s1,9.2,0.69
CON=C1CCCc2c(C(=O)NN)sc(SC)c21,5.5,0.67
CCCCCC(=O)NN=C(C)c1ccccn1,0.7,0.61
CC1CC(=NNC(N)=S)c2cc(Cl)ccc2S1 (centres undefined),-24,0.68
CCn1c(SCC(=O)NN=Cc2cc(OC)c(O)c(OC)c2)nc2ccccc21,1.0,0.65
CCOc1cc(C=NNC(N)=O)cc(Br)c1OCc1ccccc1,3.0,0.73
CC(=NNC(=O)OC(C)(C)C)c1ccc(-n2ccnc2)cc1,0.7,0.69
Cc1cc(C)nc(SCc2nnc(SCC(=O)Nc3nccs3)n2C)n1,-0.6,0.68
COCCNC(=S)NN=Cc1ccc([N+](=O)[O-])cc1,6.1,0.69
CCCCC(O)=NS(=O)(=O)c1ccc(N=NN(C)C)cc1,1.0,0.7
COCc1cc(C=NNC(=O)COc2ccc(Cl)cc2)ccc1OC,-0.2,0.67
Cc1c(C(=O)NN=Cc2ccoc2)cccc1[N+](=O)[O-],3.1,0.73
CC(=NNc1ccc(Cl)c(C(=O)O)c1)c1cccc([N+](=O)[O-])c1,12,0.68
COC(=O)NN=Cc1c[nH]c2ccccc12,1.6,0.74
O=S1(=O)N=C(NN=C/C=C/c2ccccc2)c2ccccc21,17,0.65
CCn1cc(C=NNS(=O)(=O)c2ccc(C)cc2)c(C)n1,-1.9,0.74

# Sorted by molar mass (falling): part of the list above.
SMILES,UCH37 inh,Ecoli growth
COc1ccc(C=NNc2nc(-c3ccc(Cl)cc3)cc(C(F)(F)F)n2)c(OC)c1,5.0,0.75
CCn1c(SCC(=O)NN=Cc2cc(OC)c(O)c(OC)c2)nc2ccccc21,1.0,0.65
CCOc1cc(C=NNC(N)=O)cc(Br)c1OCc1ccccc1,3.0,0.73
COCc1cc(C=NNC(=O)COc2ccc(Cl)cc2)ccc1OC,-0.2,0.67
Nc1nonc1C(=O)NN=Cc1cc2c(cc1Br)OCO2,-3.4,0.71
O=C(CON=Cc1ccc(OC(F)F)cc1)NCc1cccs1,3.5,0.71
CC(=NNc1ccc(Cl)c(C(=O)O)c1)c1cccc([N+](=O)[O-])c1,12,0.68
COC(=O)CCC(=NNc1ccc(Cl)c(Cl)c1)C(=O)OC,-16,0.71
CSc1nc(C)cc(SCC(=O)NN=Cc2ccccc2)n1,3.5,0.67
CCCCC(O)=NS(=O)(=O)c1ccc(N=NN(C)C)cc1,1.0,0.7
COc1ccc(NCC(=O)NN=C2CCc3ccccc32)cc1,4.0,0.67
CCn1cc(C=NNS(=O)(=O)c2ccc(C)cc2)c(C)n1,-1.9,0.74
CC(=NNC(=O)OC(C)(C)C)c1ccc(-n2ccnc2)cc1,0.7,0.69
CC(=NNc1ccc(C(=O)O)cc1)c1ccc(Cl)s1,9.2,0.69
CC1CC(=NNC(N)=S)c2cc(Cl)ccc2S1 (centres undefined),-24,0.68
CON=C1CCCc2c(C(=O)NN)sc(SC)c21,5.5,0.67
COC(=O)NN=Cc1c[nH]c2ccccc12,1.6,0.74

# Continuation.
SMILES,UCH37 inh,Ecoli growth
O=[N+]([O-])c1ccccc1C=Nn1c(COc2ccccc2)n[nH]c1=S,5.3,0.66
CCC(C)C(C)=NNC(=O)c1ccc(CSc2nc3ccccc3s2)cc1 (centres undefined),1.7,0.69
C(=Nn1cnnc1)c1nc2ccccc2[nH]1,-207,0.68
CCOC(=O)C(C)C(C)=NNC(N)=S (centres undefined),3.4,0.7
O=C(NN=C/C=C/c1ccco1)c1ccncc1,17,0.69
Cc1sc(-n2c(C)cc(C=Nn3cnnc3)c2C)c(C#N)c1C,6.0,0.66
O=C(CCC(=O)Nc1ccc(F)cc1)NN=Cc1c[nH]c2ccccc12,1.3,0.74
N#CCC(=O)NN=Cc1ccc(OC/C=C/c2ccccc2)cc1,1.5,0.68
COc1cccc(C=Nn2c(N)nc3ccccc32)c1OC,-31,0.73
CC(=NNc1ncc(Cl)cc1Cl)c1ccc(N2CCOCC2)cc1,-4.9,0.67
CC(=NNc1cc(C)nc(-c2ccccc2)n1)c1cccc([N+](=O)[O-])c1,5.0,0.7
COc1ccc(CN2C(=O)c3ccccc3C(C=NOCc3ccc(F)cc3)C2=O)cc1 (centres undefined),-15,0.82
CC(=NOC(=O)c1c(-c2ccccc2Cl)noc1C)c1ccncc1,3.0,0.69
NC(=S)NN=C1CC(c2ccc3c(c2)OCCO3)Oc2ccc(F)cc21 (centres undefined),6.0,0.66
CC(=O)Nc1ccc(S(=O)(=O)Oc2ccc(C=N/N=C3/NC(=O)C(CC(=O)O)S3)cc2)cc1 (centres undefined),13,0.69
Cc1cccc(OCC(=O)NN=Cc2cn(C)c3ccccc23)c1,2.7,0.69
O=C(NN=C/C=C/c1ccccc1)c1ccccn1,11,0.63
NC(=S)NN=Cc1coc2ccc(F)cc2c1=O,2.1,0.68
O=C(CSCc1ccc(Cl)cc1)NN=Cc1ccccc1,2.0,0.68
Cc1cnn(-c2cc(NN=Cc3ccccc3F)ncn2)c1,-1.9,0.75
CCOc1ccccc1C=NNC(=O)c1cccc(S(=O)(=O)N2CCOCC2)c1,2.7,0.72
CCc1ccc(N2CN=c3sc(=Cc4ccccc4)c(=O)n3C2)cc1,6.0,0.72
COc1ccc(OCC(=O)NN=Cc2ccc(N(C)C)cc2)cc1,-293,0.68
Cc1cc(C)c(C=NNC(N)=O)c(C)c1C=NNC(N)=O,2.8,0.7
O=C(CNC(=O)c1ccc(F)cc1)NN=Cc1cccnc1,6.3,0.64
# (cont.)
SMILES,UCH37 inh,Ecoli growth
CC(CC(C)C)=NNS(=O)(=O)c1ccc(C)c([N+](=O)[O-])c1,-1.3,0.7
CN(C)c1ccc(C=NNC(=O)c2csnn2)cc1,11,0.74
c1ccc2ncccc2c1,-1.5,0.71
ON=C1CCCc2ccc3ccccc3c21,6.4,0.7
COc1cc([N+](=O)[O-])ccc1-c1ccc(C=NNC(=O)OC(C)(C)C)o1,10,0.7
COc1ccc(/C=C/C(=O)NCC(=O)NN=C(CCC(=O)O)c2ccccc2)cc1,3.6,0.68
COC(C(=O)NN=C(C)c1ccc(C(C)(C)C)cc1)c1ccccc1 (centres undefined),0.8,0.66
COc1ccc2oc(=NO)c(C(=O)Nc3ccc(C)cc3)cc2c1,0.8,0.69
COc1ccccc1C=NN1CCN(c2ccc(Cl)cc2)CC1,5.8,0.7
O=C(NN=Cc1ccc(OCc2ccccc2)cc1)c1ccncc1,-66,0.7
C/C(C=NNC(=O)c1ccc2nc[nH]c2c1)=C/c1ccccc1,5.7,0.66
COc1cc(OC)c(OC)cc1C=NNC(=S)NCC1CCCO1 (centres undefined),-94,0.74
CCC(=NNC(=O)COc1ccccc1OC)C(CC)=NNC(=O)COc1ccccc1OC,1.9,0.66
CCCOc1c(Br)cc(C=NO)cc1OC,-2.1,0.74
N#CCON=CC(=O)Nc1ccc(F)cc1F,-3.2,0.68
Cn1c(SCC(=O)NN=Cc2ccncc2)nc2ccccc21,2.7,0.65
O=C(Cc1cccs1)NN=C/C(Br)=C/c1ccccc1,5.2,0.66
O=C(Nc1cc(C(F)(F)F)ccc1Cl)C1CCN(c2nnc(-n3cccc3)s2)CC1,0.2,0.75
CC(C)(C)OC(=O)NN=Cc1cn(-c2ccccc2)nc1-c1cccnc1,-0.4,0.71
CC(C)c1ccc(C=NNC(=O)c2cccc(S(=O)(=O)N3CCOCC3)c2)cc1,3.0,0.71
Cc1ccc(C=NOC(=O)c2nn(C)cc2Cl)cc1,3.8,0.67
NS(=O)(=O)c1ccc(NN=Cc2ccccc2Br)cc1,-4.4,0.65
Cc1ccc(C=NNC(=O)Cn2nnc(N)n2)o1,4.6,0.71
CCOC(=O)NN=Cc1c(F)c(F)c(F)c(F)c1F,4.0,0.69
Cn1ncc([N+](=O)[O-])c1C(=O)NN=Cc1cccc([N+](=O)[O-])c1,6.0,0.7
# Later entries:
SMILES,UCH37 inh,Ecoli growth
Cc1occc1C(=O)NN=Cc1ccc(-c2ccccc2)cc1,1.0,0.67
Cc1nn(-c2ccccc2)c(C)c1C=NNC(=O)c1cc(O)cc(O)c1,5.9,0.7
COc1ccc(C=NNc2ccccc2C(=O)O)cc1Cn1cc([N+](=O)[O-])cn1,6.1,0.72
N#CCON=C(c1ccccc1)c1ccncc1,4.2,0.71
CC(=NNC(=O)c1cccnc1)c1cc(C)oc1C,0.9,0.71
O=C(NN=Cc1c[nH]c2ccccc12)c1ccccc1Cl,3.8,0.69
N#CCC(=O)NN=Cc1ccc(OC2CSC2)cc1,1.6,0.71
O=C(O)Cn1cc(C=c2sc3nc4ccccc4n3c2=O)c2ccccc21,14,0.68
NC(=S)NN=Cc1ccc(-c2cc(Cl)cc(Cl)c2)o1,-4.3,0.65
S=c1[nH]nc(-c2ccco2)n1N=Cc1cccc(Cl)c1,1.2,0.63
CC(=NNC(=O)c1ccc(C)cc1)c1c(C)[nH]n(-c2ccccc2)c1=O,-4.1,0.67
O=C(NN=CC1CC=CCC1)c1cc(-c2cccnc2)nc2ccccc12 (centres undefined),1.5,0.66
COc1ccc(C=N/N=C2/NC(=O)C(CC(=O)O)S2)cc1OS(=O)(=O)c1ccccc1 (centres undefined),11,0.61
COc1ccc2nc(N=Cc3c(C)[nH]n(-c4ccc(C)cc4)c3=O)sc2c1,5.4,0.66
CCOc1ccc(C(=O)NN=Cc2ccccc2[N+](=O)[O-])cc1,4.7,0.64
COc1cc(C(=O)NCC(=O)NN=Cc2ccc(-c3cccc([N+](=O)[O-])c3)o2)cc(OC)c1OC,13,0.66
CC(=NNc1ccc(C(F)(F)F)cn1)c1ccc(S(=O)(=O)NCc2ccco2)cc1,2.1,0.75
C[N+](C)(C)CC(=O)NN=Cc1c2ccccc2cc2ccccc12,1.3,0.69
CCCCNC(=S)N(C)N=Cc1ccc(OCc2ccc(C(=O)OC)cc2)c(OC)c1,7.0,0.76

# Compound activity from PubChem BioAssay.
